RGS16-Gao HTS: RGS16-Galphao interaction regulator (human). O15492+P09471. bead-based flow cytometry RGS16-Galphao binding, fluorescence; actives lie on both sides. binding response (% of control), % at 10 µM. 220,000 tested, 0.38% active. AID 1441;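 active = below 25% or above 175%, edge rows of some plates excepted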;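 also: Galphao activated by GDP with aluminum fluoride before binding; 100% = wells without compound and 0% = beads without RGS; some results beyond the cut were filed as inactive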
Target sequence (O15492 whole entry, looked up): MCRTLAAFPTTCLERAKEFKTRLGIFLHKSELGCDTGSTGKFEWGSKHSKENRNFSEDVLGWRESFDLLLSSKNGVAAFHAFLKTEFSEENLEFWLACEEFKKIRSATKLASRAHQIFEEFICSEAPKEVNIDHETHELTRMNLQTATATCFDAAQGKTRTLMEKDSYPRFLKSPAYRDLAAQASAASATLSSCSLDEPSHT
Target sequence (P09471 whole entry, looked up): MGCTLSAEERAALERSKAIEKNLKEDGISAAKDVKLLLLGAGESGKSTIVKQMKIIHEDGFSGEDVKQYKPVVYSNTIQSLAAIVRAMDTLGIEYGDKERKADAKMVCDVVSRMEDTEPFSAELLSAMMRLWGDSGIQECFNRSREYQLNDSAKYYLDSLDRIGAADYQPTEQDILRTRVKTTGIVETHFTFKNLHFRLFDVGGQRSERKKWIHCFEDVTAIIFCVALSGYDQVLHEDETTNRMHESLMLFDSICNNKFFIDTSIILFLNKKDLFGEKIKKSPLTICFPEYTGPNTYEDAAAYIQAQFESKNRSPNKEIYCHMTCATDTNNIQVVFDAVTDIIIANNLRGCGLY
HSV replic up: HSV replication enhancement; HSV replication augmentation in cells, fold increase; maximum fold increase; 220,000 tested, 0.005% active; AID 1956;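 active = peak rise of 1.5-fold or more in the series; tested in PC3 cells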;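 also: first round at 10 µM; read as green reporter fluorescence; hits show the peak of a series up to 25 µM; 1 = signal of infected wells without compound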
GALR2 ag: GALR2 (human) receptor agonism | GALR2-expressing cells, agonist activation read-out | O43603 | activation, %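 (tested at 5 µM)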 | 140,000 tested, 0.48% active;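 active = above mean plus 3 SD of all compounds, about 5% in these data, not always enough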;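 also: 0% = vehicle buffer wells and 100% = reference agonist at full effect; tested in CHO reporter cells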
Target sequence (O43603 whole entry, looked up): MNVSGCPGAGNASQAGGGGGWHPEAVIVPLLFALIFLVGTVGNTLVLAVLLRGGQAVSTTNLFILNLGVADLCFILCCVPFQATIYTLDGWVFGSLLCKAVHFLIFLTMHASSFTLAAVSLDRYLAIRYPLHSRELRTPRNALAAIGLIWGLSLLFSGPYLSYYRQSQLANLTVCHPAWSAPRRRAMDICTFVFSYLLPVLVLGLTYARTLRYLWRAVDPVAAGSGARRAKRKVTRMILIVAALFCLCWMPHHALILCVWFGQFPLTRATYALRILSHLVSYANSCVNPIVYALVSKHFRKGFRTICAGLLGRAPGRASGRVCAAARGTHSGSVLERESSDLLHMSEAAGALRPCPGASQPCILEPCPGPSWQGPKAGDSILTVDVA
PKD1 inh: inhibitors of human PKD1 kinase | Q15139 | PKD1 kinase fluorescence polarization assay | inhibition, %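 (about 10 µM by stock and volumes)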 | 200,000 tested, 0.056% active | AID 797;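 active = inhibition of 50% or more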;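 also: controls were vehicle for no effect and a reference inhibitor for full effect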
Insulin prom inh: TRM-6 insulin promoter activity inhibition; TRM-6 cells (human fetal islet line), insulin promoter-eGFP reporter, imaging; reporter expression induced with tamoxifen; inhibition, % at 2 µM; 130,000 tested, 0.9% active; AID 1273;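 active = inhibition above the mean plus 3 SD, with well images judged a real hit on visual review, cut at about 60% in these data, passing the limit was not always enough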
Insulin prom inh cell count: further read-out of Insulin prom inh, marked with its call; normalized cell count, %; measured here: cell count, toxicity; reference of the scale not given here;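 cells exposed to compound for 48 h; stained nuclei by imaging scaled within each plate; lower means fewer cells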
HSV replic up primary fold: second read-out of HSV replic up, no call of its own (marks repeat the call); fold increase; compound at 10 µM; measured here: primary screen fold increase 10 uM; tested in PC3 cells;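 GFP signal in the first replicate; 1 = infected wells without compound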
* hit, by the source's call; i = inactive; / = not tested or not shown. No enrichment for hits; 1.3% or so of the library scored in one or more.

Start of the listing, in advance:
SMILES	RGS16-Gao HTS	HSV replic up	HSV replic up primary fold	GALR2 ag	PKD1 inh	Insulin prom inh	Insulin prom inh cell count
Cc1cccc(OCc2n(CC(=O)OC3CC(C)CCC3C(C)C)c3ccccc3[n+]2C)c1 (stereo not given)	94	i	0.64	/	-6	-56	58
COc1ccc(-c2nc(CN3CCC(c4ccccc4)CC3)c(C)o2)cc1OC	99	i	0.87	/	-7	/	/
Cc1ccc(NC(=O)CN(C)S(=O)(=O)c2cnc[nH]2)cc1C	103	i	1	-0.1	-2	-7	126
Cc1ccc2nc(NCC(=O)NN)nc(-c3ccccc3)c2c1	99	i	0.91	/	/	/	/
O=[N+]([O-])c1ccccc1Nc1ccc(O)cc1	103	i	0.91	/	2	35	119
O=C(NC(=S)Nc1ccccc1C(=O)O)c1ccc2ccccc2c1	98	i	0.91	/	/	/	/
COc1cc2[nH]c3c(=O)n(CCN4CCCCC4)cnc3c2cc1OC	99	i	0.95	-4.6	-7	/	/

This part in full (from the top)
SMILES	RGS16-Gao HTS	HSV replic up	HSV replic up primary fold	GALR2 ag	PKD1 inh	Insulin prom inh	Insulin prom inh cell count
Cc1cccc(OCc2n(CC(=O)OC3CC(C)CCC3C(C)C)c3ccccc3[n+]2C)c1 (stereo not given)	94	i	0.64	/	-6	-56	58
COc1ccc(-c2nc(CN3CCC(c4ccccc4)CC3)c(C)o2)cc1OC	99	i	0.87	/	-7	/	/
Cc1ccc(NC(=O)CN(C)S(=O)(=O)c2cnc[nH]2)cc1C	103	i	1	-0.1	-2	-7	126
Cc1ccc2nc(NCC(=O)NN)nc(-c3ccccc3)c2c1	99	i	0.91	/	/	/	/
O=[N+]([O-])c1ccccc1Nc1ccc(O)cc1	103	i	0.91	/	2	35	119
O=C(NC(=S)Nc1ccccc1C(=O)O)c1ccc2ccccc2c1	98	i	0.91	/	/	/	/
COc1cc2[nH]c3c(=O)n(CCN4CCCCC4)cnc3c2cc1OC	99	i	0.95	-4.6	-7	/	/
Cc1ccc(N2CC(=O)N(NC(=O)CN3CCN(c4ccccc4)CC3)CC2=O)cc1	90	i	1.1	/	/	/	/
COc1cc(CNCc2c[nH]c3ccccc23)cc(OC)c1	99	i	1	/	6	-78	112
COc1ccc(NC(=S)Nc2nc(CC(=O)Nc3ccccc3OC)cs2)cc1	95	i	0.69	-1.2	-1	/	/
O=C(c1csc2c1CCCC2)N1CCCCC1	106	i	0.9	-0.9	16	6	108
Cc1ccc(S(=O)(=O)N(CC(=O)O)Cc2ccccc2)cc1	99	i	0.97	-1.5	6	/	/
CSc1cnc2c(N)nc(N(C)C)nc2n1	98	i	1	-0.9	-12	0	103
CCCCNC(=O)CCn1c(=O)c2ccccc2n(CC(=O)N2CC(C)CC(C)C2)c1=O (stereo not given)	100	i	0.95	-0.9	-6	/	/
CC(C)(C)c1cc(NC(=O)c2cccc([N+](=O)[O-])c2)no1	96	i	0.98	/	7	/	/
CCOC(=O)C1=C(COC(=O)C2(C)CC2(Cl)Cl)NC(=O)NC1c1ccccc1 (stereo not given)	102	i	0.95	/	-6	/	/
CCOC(=O)C1(Cc2ccc(OC)cc2)CCN(C(=O)CCN2CCCC2=O)CC1	99	i	0.94	/	9	/	/
C/C(=N\Nc1ccc(F)cc1F)c1ccc(F)cc1	101	i	1	0.1	-9	24	229
NC(=O)CSc1nc(C23CC4CC(CC(C4)C2)C3)nc2ccccc12	100	i	0.78	/	2	/	/
COC(=O)CCCSc1nccn1-c1ccccc1	106	i	1.1	/	-4	-31	76

As a short view, some entries already given:
SMILES	RGS16-Gao HTS	HSV replic up	HSV replic up primary fold	GALR2 ag	PKD1 inh	Insulin prom inh	Insulin prom inh cell count
O=C(c1csc2c1CCCC2)N1CCCCC1	106	i	0.9	-0.9	16	6	108
Cc1ccc(S(=O)(=O)N(CC(=O)O)Cc2ccccc2)cc1	99	i	0.97	-1.5	6	/	/
CSc1cnc2c(N)nc(N(C)C)nc2n1	98	i	1	-0.9	-12	0	103
CCCCNC(=O)CCn1c(=O)c2ccccc2n(CC(=O)N2CC(C)CC(C)C2)c1=O (stereo not given)	100	i	0.95	-0.9	-6	/	/
CC(C)(C)c1cc(NC(=O)c2cccc([N+](=O)[O-])c2)no1	96	i	0.98	/	7	/	/

Next records follow:
SMILES	RGS16-Gao HTS	HSV replic up	HSV replic up primary fold	GALR2 ag	PKD1 inh	Insulin prom inh	Insulin prom inh cell count
Cc1ccccc1-n1c(Cn2c(=O)sc3ccccc32)nnc1SC(C)C	99	i	1.1	-1.4	4	/	/
COC(=O)c1ccc2c(c1)C(C)(C)C(/C=C/c1ccc(O)cc1)=[N+]2C	86	i	0.86	6.8*	-10	25	73
CN(Cc1ccccc1)S(=O)(=O)c1ccc(Cl)c(C(=O)NCCc2ccccn2)c1	88	i	1.1	/	2	0	73
COC(=O)C1=C(CSc2nc3c(cc2C#N)CN(C)CC3)OC(N)=C(C#N)C1c1ccccc1F (stereo not given)	105	i	1	-0.8	-2	-25	118
CC(=O)N(CCCN(C)C)c1nc2ccc(C)cc2s1	102	i	1	/	-12	-50	92
Cc1nn(C)c(C)c1S(=O)(=O)N1CCCC(C(=O)N2CCN(c3ccc(Cl)cc3)CC2)C1 (stereo not given)	105	i	0.99	0.1	-12	-78	44
C/C(=N\O)C(C)(C)NC(=O)Nc1ccc(Cl)cc1	81	i	0.89	-1.0	-4	/	/
CCc1nnc(NS(=O)(=O)c2ccc(NS(=O)(=O)c3ccccc3)cc2)s1	100	i	1.1	-0.3	-13	/	/
Cc1onc(-c2ccccc2)c1C(=O)N(Cc1ccccn1)Cc1ccccn1	100	i	0.91	/	/	/	/
CCOC(=O)c1sc(NS(=O)(=O)c2ccc(F)cc2)nc1C	99	i	0.88	/	-4	/	/
CCOc1ccc(-c2cnc(SCC(N)=O)nc2N)cc1	104	i	0.96	-2.6	-11	0	80
CCO/N=C(\C)c1c(O)c2ccccc2n(C)c1=O	109	i	0.93	-1.7	-4	-4	114
O=C(O)Cn1nc(C(F)(F)F)c2c1CCC2	110	i	0.84	-0.3	-15	10	74
NC1=C(O)C(=O)C(c2ccccc2)O1 (stereo not given)	105	i	0.99	/	/	/	/
CN(Cc1ccccc1)c1nc2c(c(=O)n(C)c(=O)n2C)n1CCSc1ncccn1	101	i	0.79	0.0	1	/	/
Cc1ccn2c(C(=O)CSc3ccccc3Cl)c(C)nc2c1	96	i	0.9	-1.8	-12	-20	110
Nn1c(SCC(=O)Nc2ccc(F)cc2F)nnc1C1CCCCC1	104	i	1.1	-0.2	-12	/	/
CCOCCn1cnc2sc(C(=O)NCC(=O)OCC)c(C)c2c1=O	98	i	0.92	-1.1	5	/	/
Cc1cccc(N2CC34C=CC(O3)C(C(=O)O)C4C2=O)c1 (stereo not given)	91	i	0.99	-3.4	-10	-50	106
CCOC(=O)c1[nH]c(C)c(C(=O)OC(C)C(=O)Nc2ncc(Cl)cc2Cl)c1C (stereo not given)	103	i	0.8	-0.8	-4	40	25
CCOC(=O)N1CCN(C(=O)c2ccc3c(=O)n(-c4ccc(F)cc4)c(=S)[nH]c3c2)CC1	106	i	0.95	-0.7	-3	-41	108
O=c1cccccc1NCc1ccccc1	91	i	0.75	-1.4	-3	39	80
Cn1cccc1/C=N/N1CCN(Cc2cccc3ccccc23)CC1	98	i	0.91	/	/	/	/
Cc1cc(NC(=O)C23CC4CC(CC(C4)C2)C3)n[nH]1	94	i	0.92	/	4	/	/
COc1ccc(NS(=O)(=O)c2ccc(N3CCOCC3)c(NC(=O)c3ccco3)c2)cc1	99	i	0.89	/	-5	/	/
COC(=O)CN1C(=O)C2(C(C#N)=C(N)Oc3c2c(C)nn3-c2ccccc2)c2ccccc21 (stereo not given)	103	i	0.75	-0.8	7	6	70
Cc1ccc(-c2cccc(C3CC=CC4C3C(=O)N(Cc3ccccc3)C4c3ccc4ccccc4c3)c2)cc1 (stereo not given)	81	i	0.72	/	/	/	/
Cc1cccc(C)c1OC(=O)CCN1C(=O)C2C3C=CC(C4CC34)C2C1=O (stereo not given)	103	i	0.98	/	3	/	/
O=C(COc1ccc(S(=O)(=O)NC2CCCCC2)cc1)Nc1ccc2c(c1)OCCO2	97	i	1.2	-0.9	-15	/	/
CCc1ccc(C(=O)CSc2nc3cc(S(=O)(=O)N4CCOCC4)ccc3n2CC)cc1	100	i	1.2	-0.5	6	/	/
Cc1sc(NC(=O)c2ccco2)nc1-c1ccc2c(c1)CC(C)N2C(=O)C1CC1 (stereo not given)	108	i	0.66	-1.0	4	-28	28
O=C(NC1CCCCCC1)C1CCCN1S(=O)(=O)c1cccc2cccnc12 (stereo not given)	103	i	0.86	-0.7	2	/	/
CCOc1ccc(-c2nn3c(-c4ccccc4)nnc3s2)cc1	100	i	0.81	-0.9	-3	-11	197
S=C(NCC1CCCO1)n1nnc2ccccc21 (stereo not given)	/	i	0.99	-1.1	8	/	/
Cc1cc(C)c(-n2[nH]nnc2=S)c(C)c1	104	i	1	/	/	/	/
Cc1cc(C)nc(N/N=C/c2c(C)oc3ccccc23)n1	104	i	0.93	/	-7	-5	130
Nc1cc(=O)[nH]c(SCc2csc(-c3ccccc3)n2)n1	105	i	0.79	-0.4	-5	0	89
COc1cc(CCC(=O)OCc2nnc(-c3ccccc3)o2)cc(OC)c1OC	101	i	1	-1.7	6	-43	70
COC(=O)C1NN=C(C(=O)c2ccc(Cl)cc2)C1c1ccc(OC)cc1 (stereo not given)	99	i	1.1	0.0	-1	10	162
COc1ccc(CC(=O)Nc2nncs2)cc1OC	103	i	0.77	-1.5	-14	14	132
Cc1cc(Nc2ccccc2)n(CCO)n1	101	i	0.89	-2.2	-2	i	39
O=C(c1cc2ccccc2o1)c1cccs1	105	i	1	-0.6	1	43	129
CCCCCOC(=O)c1c(N)n(CCOC)c2nc3ccccc3nc12	123	i	0.81	1.3	-9	-14	135
CCCCOc1nc(N)nc(-c2ccccc2)n1	69	i	0.98	0.1	-6	69	136
Cn1nnnc1SCC(=O)c1ccc2c(c1)OCCO2	107	i	1.1	/	2	/	/
CCC1CCCCN1CCCNC(=O)CC1Oc2ccccc2NC1=O (stereo not given)	89	i	0.86	-4.4	-8	/	/
C=CCn1c(=O)c(C(=O)OCC)c(O)c2ccccc21	98	i	0.87	/	5	-37	99
O=P(c1ccccc1)(c1ccccc1)N(c1ccccc1)c1ccccc1	101	i	0.99	-1.5	-7	-24	50
COC(=O)c1cccnc1N1CCN(c2ccccc2F)CC1	98	i	1.4	-3.2	22	-103	130
CCC1Oc2ccccc2N(CC(=O)NCCN2CCc3ccccc3C2)C1=O (stereo not given)	100	i	1.1	-0.2	11	/	/
CC(=O)c1nc(N2C(=O)CC(Cc3ccccc3)C2=O)sc1C (stereo not given)	102	i	1.1	-0.4	-2	15	143
CCOCCCNC(=S)NCCc1ccccc1	101	i	0.91	-0.9	-2	-91	110
